Bioassay records: PubChem BioAssay, several laboratories
ugtP null kill – growth inhibition of ugtP-null S. aureus, primary screen, RN4220 ugtP deletion, OD600; 16 h; some inactives read as strong as hits; growth inhibition, % (no concentration beside the values); 330,000 compounds, 0.54% hits; AID 1259309, 2017;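 active means z-score under -3 and OD600 up to 0.15 on both plates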;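 further: plate controls were untreated wells for no effect and antibiotic for full effect; wells of about 80 µL received 100 nL stock; the first replicate is given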
Mtb hypoxia rep – PubChem AID 1159583. M. tuberculosis hypoxia-regulated fluorescent reporter, fluorescence. 300,000 compounds, 0.1% hits. fluorescence inhibition, % (no concentration beside the values);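 active means 35 to 45% if threefold the growth effect, above 45% if 1.5-fold the growth effect; inactive means the rest, general growth blockers included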;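 further: wells of about 50 µL received 100 nL stock; 0% = vehicle wells and 100% = reference inhibitor wells; whole bacteria with a GFP reporter of the hypoxia response; strong numbers were not always called active; many hits fall short of the cut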
PrP 5UTR inh – inhibition of PrP 5' UTR reporter expression; inhibition, % (test concentration not listed); AID 488862, 2010; 340,000 compounds, 0.35% hits; cell-based PrP 5' UTR mRNA reporter, plate reader;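 active means every replicate at 50% or more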;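 further: 0 = median of the neutral control wells; tested in H4 reporter cells; numbers are from one replicate; inactives centre near -14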
Bead autofluor – compound fluorescence in toxin protease inhibitor counterscreen | fluorescence intensity (no concentration beside the values) | AID 624483 | 360,000 compounds, 3.1% hits | compound autofluorescence counterscreen, microsphere flow cytometry; stronger effect = higher value;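 active means at least 3 SD above the mean of all compounds, about 16000 in these data; inconclusive means too few beads counted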;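 further: 100 nL of 1 mM stock went into each well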
BJeLR viability – MLPCN primary cell-based screen for lethality selective to Ras in HRASV12 cells. BJeLR (HRASV12) viability, CellTiter-Glo ATP luminescence, 48 h; reference of the scale not given here. inhibition, % (test concentration not listed). 300,000 compounds, 0.17% hits;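 active means replicate mean above 50%; inconclusive means above 50% but judged a plate artefact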;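 further: 50 nL library stock added to about 25 µL; numbers are from one replicate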
RN4220 kill – growth inhibition of S. aureus RN4220, primary screen, OD600; 330,000 compounds, 0.33% hits; 16 h; AID 1259311, 2017; inhibition, % (no concentration beside the values);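 active means z-score of -3 or lower and OD600 up to 0.18 on both plates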;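 further: plate controls were untreated cells for no effect and reference antibiotic for full effect; stock transfer was 100 nL into about 80 µL; one replicate is shown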
Mtb hypoxia rep growth – second read-out of Mtb hypoxia rep, no call of its own (marks repeat the call); growth inhibition, %; measured here: M. tuberculosis growth (absorbance);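 0% = vehicle and 100% = reference antibiotic; read after six days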
Numbers without * were called inactive; ? = inconclusive; . = not tested or not shown.

SMILES	ugtP null kill	Mtb hypoxia rep	Mtb hypoxia rep growth	PrP 5UTR inh	Bead autofluor	BJeLR viability	RN4220 kill
CC(C)CCNC(=O)CSc1nc2ccsc2c(=O)n1NC(=O)c1ccccc1	0	-2	5	1	21825*	-3	0.9
CCCCCc1c(C)nc(Nc2nc(C)c3cc(OC)ccc3n2)[nH]c1=O	-11	3	22	-11	2993	4	-11
Cc1ccc(P(=O)(O)c2ccc(C)cc2)cc1	1	.	.	1	2289	5	-4.2
COc1ccc(C=NNc2ccccc2C(=O)O)cc1	-7	6	-7	.	.	.	8.9
Cc1ccc(C(=O)OCC(=O)NCCNC(=O)COC(=O)c2ccc(C)s2)s1	-2	-4	-1	-14	6204	-13	4.3
NC(=O)NC(=O)c1nccnc1C(=O)O	7	6	-4	-16	4846	8	4.1
COc1ccc(-c2c(C)oc3c(CN4CCN(CCO)CC4)c(O)ccc3c2=O)cc1OC	-6	6	3	-22	2798	-2	-15
CC(C(=O)c1ccccc1)C(O)c1ccccn1 (stereo unspecified)	-5	-7	15	7	3801	.	-1.9
CCN(CC)CCN(C(=O)c1ccc2c(c1)CCCC2)c1nc2cc(OC)c(OC)cc2s1	0	-4	4	-4	5750	-9	2.0
Cc1ccc(-c2nn(-c3ccccc3)cc2CO)cc1	-6	12	8	-46	3488	7	-2.1
O=C(COC(=O)c1cccs1)Nc1ccccc1	0	7	1	-6	12627	-5	5.3
C=C[C@@H]1C2=CCOC(=O)C2=CO[C@H]1O[C@@H]1O[C@H](CO)[C@@H](O)[C@H](O)[C@H]1O	-3	13	5	-37	4134	.	-12
CC(Oc1ccc2ccc(=O)oc2c1)C(=O)NC1CC(C)(C)NC(C)(C)C1 (stereo unspecified)	2	8	-1	-10	3958	2	0.8
Cc1ccc(C)c(S(=O)(=O)N2CCN(C(=O)c3cnccn3)CC2)c1	0	6	13	-18	23149*	-6	3.7
CCOC(=O)CN1C(=O)C(C)(C)Oc2ccc(C(=O)Nc3ccccc3)cc21	2	-3	-1	-33	8270	0	-1.7
CC1=CCC2C(=O)N(c3ccc(Br)cc3C)C(=O)C2C1 (stereo unspecified)	-1	9	7	-12	3502	9	4.3
CCCc1nc2c(s1)CCc1onc(-c3ccc(OC)cc3)c1-2	4	9	7	-28	3495	8	6.5
CC(CC(=O)Nc1ccc(C)cc1C)=NNC(=O)C(C)C	4	-7	5	.	.	.	2.0
CC(C)=N/N=c1\scc(C)n1Cc1ccco1	.	.	.	-13	4507	-6	.
Cc1ccc(S(=O)(=O)N2CCCCC2)cc1NC(=O)c1ccc(Br)o1	2	4	-2	-7	6414	.	2.1
Cc1c(OCC(=O)NCc2ccccn2)ccc2c3c(c(=O)oc12)CCCC3	-2	12	20	4	5456	-1	3.7
c1ccc(Nc2nc(NCC3CCCO3)c3ccccc3n2)cc1 (stereo unspecified)	-34	-32	-4	-16	5091	12	-1.1
CC1CCC2(CC1)NC(=O)N(CC(=O)Nc1ccc3c(c1)OCCCO3)C2=O (stereo unspecified)	11	4	-2	-5	?	.	3.5
Cc1cccc(CN(CC(=O)N/N=C/c2cccs2)S(=O)(=O)c2ccc(Cl)cc2)c1	.	.	.	-33	4341	-5	.

Structures above that have nitrogen in an aromatic ring:
SMILES	ugtP null kill	Mtb hypoxia rep	Mtb hypoxia rep growth	PrP 5UTR inh	Bead autofluor	BJeLR viability	RN4220 kill
CC(C)CCNC(=O)CSc1nc2ccsc2c(=O)n1NC(=O)c1ccccc1	0	-2	5	1	21825*	-3	0.9
CCCCCc1c(C)nc(Nc2nc(C)c3cc(OC)ccc3n2)[nH]c1=O	-11	3	22	-11	2993	4	-11
NC(=O)NC(=O)c1nccnc1C(=O)O	7	6	-4	-16	4846	8	4.1
CC(C(=O)c1ccccc1)C(O)c1ccccn1 (stereo unspecified)	-5	-7	15	7	3801	.	-1.9
CCN(CC)CCN(C(=O)c1ccc2c(c1)CCCC2)c1nc2cc(OC)c(OC)cc2s1	0	-4	4	-4	5750	-9	2.0
Cc1ccc(-c2nn(-c3ccccc3)cc2CO)cc1	-6	12	8	-46	3488	7	-2.1
Cc1ccc(C)c(S(=O)(=O)N2CCN(C(=O)c3cnccn3)CC2)c1	0	6	13	-18	23149*	-6	3.7
CCCc1nc2c(s1)CCc1onc(-c3ccc(OC)cc3)c1-2	4	9	7	-28	3495	8	6.5
CC(C)=N/N=c1\scc(C)n1Cc1ccco1	.	.	.	-13	4507	-6	.
Cc1c(OCC(=O)NCc2ccccn2)ccc2c3c(c(=O)oc12)CCCC3	-2	12	20	4	5456	-1	3.7
c1ccc(Nc2nc(NCC3CCCO3)c3ccccc3n2)cc1 (stereo unspecified)	-34	-32	-4	-16	5091	12	-1.1

New compounds follow:
SMILES	ugtP null kill	Mtb hypoxia rep	Mtb hypoxia rep growth	PrP 5UTR inh	Bead autofluor	BJeLR viability	RN4220 kill
O=C(NCCc1cccc(C(F)(F)F)c1)C1CCC(=O)N(C2CC2)C1 (stereo unspecified)	8	4	3	-10	5336	2	3.5
Cc1c(C=NO)c2ccccn2c1C(=O)c1ccc(F)cc1	-1	15	3	.	.	.	4.4
O=C(CCC1CCCCC1)NCc1ccc(F)cc1	2	.	.	-25	2243	-5	0.7
Cc1ccc2nc(NC(=S)NC(=O)c3ccco3)sc2c1	-10	20	13	-95	2130	-10	-3.1
Cc1ccc(CN2CC(C(=O)NC3CCCC(C)C3C)CC2=O)cc1 (stereo unspecified)	0	1	2	-19	3907	.	0.6
O=C(CCSc1nnc(-c2ccco2)o1)Nc1ccc(Cl)cc1	-4	9	8	-8	4481	-10	0.2
CCO[C@H]1OC(C(=O)NCc2nc3ccccc3[nH]2)=C[C@@H](C)[C@@H]1CCCO	-5	12	6	-12	2940	6	-13
CCCCCCC1(C)NC(=S)N(c2ccccc2)N1 (stereo unspecified)	.	.	.	-17	4681	-7	.
O=C(CSc1ccc(-c2ccco2)nn1)NCCc1ccccc1	7	10	-5	6	3665	-15	12
CCOc1ccc2nc(NC(=O)COc3ccc(N(C)S(=O)(=O)c4ccc(C)cc4)cc3)sc2c1	-5	2	-9	-8	4583	16	0.5
COc1cc(OC)c(-c2nn3c(C4CCCCC4)nnc3s2)cc1OC	-6	9	13	0	10677	7	3.5
COc1cccc(C(=O)Oc2cc3c4c(c2)C(C)=CC(C)(C)N4C(=O)C3=O)c1	10	10	11	-18	11976	15	23
Cn1c(CNC(=O)c2ccccc2F)nnc1SCc1ccc(F)cc1	4	-9	-1	-16	1996	9	0.6
Cc1ccccc1NC(=S)N/N=C/C(C)c1ccccc1 (stereo unspecified)	.	.	.	-7	5482	9	.
O=C(O)/C(=C\c1cccc(F)c1)c1ccc(S(=O)(=O)N2CCCCC2)s1	-7	7	5	-12	2017	-5	12
CCCN(CCC)CCCn1c(=O)[nH]c2ccccc21	12	0	5	-13	3923	4	6.5
COCCn1c(SCCCC(=O)c2ccc(Br)cc2)nnc1-c1ccncc1	.	.	.	-8	2541	-2	.
CC(C)(C#CC(O)(c1ccccc1)c1ccccc1)N1CCCCC1	12	2	-4	-13	4170	-6	4.0
CC(C)C[C@@]12C(=O)N(c3cccc(Cl)c3)C(=O)N1C(c1ccc(F)cc1)C1C(=O)N(C3CCCCC3)C(=O)C12 (stereo partly specified)	-31	3	8	.	.	.	-2.8
O=C(/C=C/c1ccccc1[N+](=O)[O-])NC1CCCC1	-2	13	17	-5	2185	-7	1.7
CCCN(CC(=O)Nc1cc(Cl)ccc1Cl)C(=O)c1ccccc1SCC(=O)N1CCCC1	4	3	2	-3	?	-4	4.1
Cc1ccc(N(C=NC#N)CC(=O)N2CCN(c3ccccc3)CC2)cc1	-6	.	.	8	2757	-7	-1.4
COC(=O)C(CC(C)C)NCc1cccc(CNC(CC(C)C)C(=O)OC)c1 (stereo unspecified)	-1	-6	0	.	.	.	1.4
O=C(Nc1nc2ccccc2[nH]1)c1cccs1	4	2	9	-43	3283	-14	1.4
Cc1ccc(C(=O)C(OC(=O)CN2C(=O)c3ccccc3C2=O)c2ccccc2)cc1C (stereo unspecified)	5	9	12	-10	22707*	12	2.8
CCN(Cc1ccccc1)C(=O)CSc1nc(C)cc(=O)[nH]1	-1	15	10	-17	3376	8	0.3
CCN1CCN(C(=O)CN(c2ccccc2C)S(C)(=O)=O)CC1	-5	4	4	12	4242	-6	1.0
O=C(NCc1ccccn1)C(=O)NN=Cc1ccccc1O	-3	9	-14	.	.	.	3.5
O=C(NC1CCCc2ccccc21)c1cc(S(=O)(=O)N2CCOCC2)ccc1F (stereo unspecified)	6	10	4	-10	4712	-7	2.3
O=C(CSc1nc2cccnc2n1Cc1ccccc1)NCc1ccco1	6	.	.	-23	2924	1	4.8
COc1ccc2c(c1)C1C(CO2)C(c2ccccc2)[C@]2(C)C(=O)N(CC3CCCO3)CC(=O)N12 (stereo partly specified)	10	17	7	.	.	.	8.6
CCc1cccc(C)c1NC(=S)NCC(c1cccnc1)N(C)C (stereo unspecified)	8	4	-2	-10	2681	10	4.2
C/C(=N\NC(=O)c1nnn(-c2nonc2N)c1CSc1ccccc1)c1cccnc1	.	.	.	-13	4550	-21	.
CSc1ccc(S(=O)(=O)NCc2ccc(Cl)cc2Cl)cc1	-23	5	-3	1	11230	-5	11
Cc1ccc(/C=C/C(=O)NCc2ccncc2)cc1	.	.	.	-34	10804	13	.
Nc1nc(SCC(=O)Nc2ccc(S(N)(=O)=O)cc2)n[nH]1	6	1	-3	27	4320	-1	-0.8
CCCn1cnc2scc(-c3ccc(C)c(C)c3)c2c1=O	14	-6	2	-18	4305	-15	6.3
O=C(COc1ccccc1C=C1SC(=O)NC1=O)Nc1ccccc1	14	3	-2	.	.	.	26
CCc1nnc(SCC(=O)Nc2ccccc2)n1CC1CCCO1 (stereo unspecified)	4	8	2	-19	7118	-3	0.6
CCN1C=C(Cc2ccccc2C)C2=C(C1)C(c1ccccc1C)C(C#N)=C(N)O2 (stereo unspecified)	6	.	.	-20	3040	-3	-1.5
O=C(Nc1cc(=O)[nH]c(=O)[nH]1)c1cccc(Br)c1	1	11	-2	-22	2055	5	0.9
Cc1cccc(C2=NNC(=O)C(c3ccc(Cl)cc3)C2)c1 (stereo unspecified)	5	4	8	-15	4486	-7	2.4
O=C(NCCCn1ccnc1)c1ccc(Cl)cc1[N+](=O)[O-]	.	.	.	-9	2259	-10	.
COc1ccc(CC(=O)Nc2nnc(-c3cccc([N+](=O)[O-])c3)s2)cc1	-7	2	1	-15	4646	-4	-11
Cc1nnc(C)c2c(C)n(-c3cccc4cccnc34)c(C)c12	1	-2	10	.	.	1	2.0
O=C(COC(=O)c1ccc(O)cc1O)NC1CCS(=O)(=O)C1 (stereo unspecified)	-1	10	9	-15	4327	-8	0.0
O=C(NCc1n[nH]c(=O)c2ccccc12)C1CC(=O)N(c2ccccc2)C1 (stereo unspecified)	2	8	4	-13	?	0	1.0
COCCN(C(=O)COC(=O)CSc1ccc(Cl)cc1)c1c(N)n(Cc2ccccc2)c(=O)[nH]c1=O	22	6	-2	-7	?	3	35
CC(=O)c1ccc(N2CCN(C(=O)C3CCN(S(=O)(=O)c4cccs4)CC3)CC2)cc1	4	-4	-2	-23	6112	-2	1.9
CCOC(=O)c1c(C)[nH]c(C)c1S(=O)(=O)N(C)CC(=O)N1CCN(c2ccc(OC)cc2)CC1	9	-7	-3	-15	5397	1	0.3
O=C(Cc1c[nH]c2ccccc12)N1CCN(S(=O)(=O)c2ccc(Cl)cc2)CC1	-3	5	1	1	5941	.	3.5
